Screens: PubChem BioAssay, Broad Institute
AF4-AF9 inh – inhibitors of AF4 peptide binding to AF9, primary screen, biochemical, AlphaScreen, biotin-AF4 peptide, FLAG-AF9, single point. inhibition, % at 10 µM. hit rate 0.47% among 350,000. AID 651704, 2012;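 active means every replicate reaching a set inhibition limit, whatever the replicate mean, cut at about 25% in these data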;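 further: 0% = plate neutral control median and 100% = total signal loss; the record names both 10 and 1 µM as test concentration; the first replicate is given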
Target sequence (P42568 whole entry, looked up): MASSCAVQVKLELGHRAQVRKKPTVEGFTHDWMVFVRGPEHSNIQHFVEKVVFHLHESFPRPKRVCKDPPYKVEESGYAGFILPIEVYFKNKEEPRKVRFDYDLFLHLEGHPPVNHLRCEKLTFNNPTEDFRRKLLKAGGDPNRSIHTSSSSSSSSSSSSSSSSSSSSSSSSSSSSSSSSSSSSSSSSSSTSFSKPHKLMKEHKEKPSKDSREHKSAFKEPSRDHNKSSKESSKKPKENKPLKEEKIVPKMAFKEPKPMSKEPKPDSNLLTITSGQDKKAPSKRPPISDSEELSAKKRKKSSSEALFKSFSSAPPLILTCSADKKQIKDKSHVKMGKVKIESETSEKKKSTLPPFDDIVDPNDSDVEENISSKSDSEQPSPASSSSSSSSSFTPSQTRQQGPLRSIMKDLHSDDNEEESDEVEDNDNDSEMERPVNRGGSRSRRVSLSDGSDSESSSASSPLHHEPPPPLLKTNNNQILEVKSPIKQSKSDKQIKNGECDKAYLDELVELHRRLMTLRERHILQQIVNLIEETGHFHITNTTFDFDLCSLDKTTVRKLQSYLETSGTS
Ecoli rRNA inh – reduced GFP signal of wild-type E. coli, primary screen, bacterial rRNA inhibitor project, GFP/RFP fluorescence, OD600, single point. E. coli WT GFP vs humanized-ribosome RFP mutants, 24 h; hits give low values; DMSO median 0, no signal -100. GFP signal change (wild-type ribosome), % (test concentration not listed). hit rate 1.6% among 350,000. AID 720706, 2013;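 active means significant combined selectivity score with lowered wild-type GFP, culture density cut under 30%, mutant RFP and density less affected; inactive means any of these conditions unmet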; further: one replicate is shown; some compounds called inactive have numbers as strong as hits
Ecoli rRNA inh OD600 – recorded beside Ecoli rRNA inh, whose call it bears; OD600 change, %; measured here: OD600 growth;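 optical density of the mix in the first replicate; 0 = DMSO median and -100 = no signal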
Ecoli rRNA inh RFP – also measured in Ecoli rRNA inh; calls as there; RFP signal change, %; measured here: RFP humanized mutant strains;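 first replicate; 0 = DMSO median and -100 = no signal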
Numbers without * were called inactive; & = joins results of further samples. This is a subset. The share of hits here may be higher or lower than overall.

No.	AF4-AF9 inh	Ecoli rRNA inh	Ecoli rRNA inh OD600	Ecoli rRNA inh RFP	Structure
1	0.9	-2	-5	4.6	COc1cccc(NC(=O)C[C@@H]2CC[C@@H]3[C@H](COc4ccc(NC(=O)c5ccccc5F)cc4C(=O)N3C)O2)c1
2	-6.2	0	-6	-1.5	CCCC#Cc1cnc2c(c1)C(=O)N([C@H](C)CO)C[C@@H](C)[C@@H](CN(C)C(=O)C1CC1)O2
3	-1.1	3	4	-2.4	CC(C)NC(=O)N1C[C@@H]2[C@H](c3ccccc31)[C@@H](CO)N2C(=O)c1ccccn1
4	-2.9	2	1	-0.6	COCC(=O)N(C)C[C@@H]1Oc2ncc(-c3ccc(C#N)cc3)cc2C(=O)N([C@@H](C)CO)C[C@H]1C
5	0.8	-1	9	1.5	Cn1cnc(CCNC(=O)C[C@H]2CC[C@H]3[C@@H](COC[C@@H](O)CN3C(=O)C3CC3)O2)c1
6	-5.3	3	4	1.0	CNC[C@H]1Oc2ccc(NC(=O)CCC(F)(F)F)cc2CC(=O)N([C@H](C)CO)C[C@H]1C
7	-1.8	5	4	-5.7	CC(C)NC(=O)N(C)C[C@@H]1Oc2ccc(NC(=O)Nc3ccc4c(c3)OCO4)cc2C(=O)N([C@@H](C)CO)C[C@@H]1C
8	-6.4	2	16	-2.0	CN(C)CCCNC(=O)C[C@@H]1CC[C@@H]2[C@@H](COc3ccc(NS(C)(=O)=O)cc3C(=O)N2C)O1

Six structures from above, ordered by number of heavy atoms, descending:
No.	AF4-AF9 inh	Ecoli rRNA inh	Ecoli rRNA inh OD600	Ecoli rRNA inh RFP	Structure
7	-1.8	5	4	-5.7	CC(C)NC(=O)N(C)C[C@@H]1Oc2ccc(NC(=O)Nc3ccc4c(c3)OCO4)cc2C(=O)N([C@@H](C)CO)C[C@@H]1C
4	-2.9	2	1	-0.6	COCC(=O)N(C)C[C@@H]1Oc2ncc(-c3ccc(C#N)cc3)cc2C(=O)N([C@@H](C)CO)C[C@H]1C
8	-6.4	2	16	-2.0	CN(C)CCCNC(=O)C[C@@H]1CC[C@@H]2[C@@H](COc3ccc(NS(C)(=O)=O)cc3C(=O)N2C)O1
6	-5.3	3	4	1.0	CNC[C@H]1Oc2ccc(NC(=O)CCC(F)(F)F)cc2CC(=O)N([C@H](C)CO)C[C@H]1C
5	0.8	-1	9	1.5	Cn1cnc(CCNC(=O)C[C@H]2CC[C@H]3[C@@H](COC[C@@H](O)CN3C(=O)C3CC3)O2)c1
3	-1.1	3	4	-2.4	CC(C)NC(=O)N1C[C@@H]2[C@H](c3ccccc31)[C@@H](CO)N2C(=O)c1ccccn1

Next section:
No.	AF4-AF9 inh	Ecoli rRNA inh	Ecoli rRNA inh OD600	Ecoli rRNA inh RFP	Structure
9	5.3	-3	2	1.7	C[C@H](CO)N1C[C@H](C)[C@H](CN(C)S(=O)(=O)c2cn(C)cn2)OCCCC[C@H](C)Oc2ccc(NC(=O)Nc3ccc(F)cc3)cc2C1=O
10	2.9	2	8	-3.3	C[C@H](CO)N1C[C@H](C)[C@H](CN(C)Cc2ccncc2)Oc2ncc(-c3ccccc3)cc2C1=O
11	-9.7	3	1	-2.3	C[C@@H]1CCCCO[C@H](CN(C)C(=O)CCCN(C)C)[C@H](C)CN([C@@H](C)CO)C(=O)c2cc(NS(C)(=O)=O)ccc2O1
12	-3.2	2	6	-1.0	C[C@@H]1CCCCO[C@H](CN(C)C(=O)c2ccncc2)[C@@H](C)CN([C@H](C)CO)C(=O)c2cc(NS(=O)(=O)c3ccccc3)ccc2O1
13	-0.3	-8	-6	5.8	CC(C)C[C@H]1CN(CCCC[C@@H]2CNC(=O)C(=O)N2Cc2ccccc2)C(=O)C(=O)N1CCc1ccccc1
14	2.3	-6	-12	2.7	C[C@@H]1CCCCO[C@H](CN(C)S(=O)(=O)c2ccccc2)[C@H](C)CN([C@H](C)CO)C(=O)c2cc(NS(C)(=O)=O)ccc2O1
15	-0.5	1	1	1.2	COc1ccccc1-c1ccc([C@H]2[C@@H](CO)N(C(=O)C3CC3)[C@H]2C#N)cc1
16	-1.8	-1	-4	-0.8	Cc1noc(C)c1S(=O)(=O)N(C)C[C@H]1OCCCC[C@@H](C)Oc2ccc(NS(=O)(=O)c3ccc(Cl)cc3)cc2C(=O)N([C@H](C)CO)C[C@@H]1C
17	-9.0	-2	1	2.0	C[C@@H]1CN([C@@H](C)CO)C(=O)c2cc(NC(=O)Nc3ccccc3)ccc2O[C@H]1CN(C)S(=O)(=O)c1ccc(F)cc1
18	-0.3	1	-3	-1.3	O=C(Cc1ccccn1)NCC[C@@H]1CC[C@H](NC(=O)CN2CCOCC2)[C@@H](CO)O1
19	4.2	-5	-14	-0.1	C[C@H](CO)N1C[C@H](C)[C@@H](CN(C)Cc2ccc3c(c2)OCO3)Oc2c(NC(=O)Nc3ccc(F)cc3)cccc2C1=O
20	2.9	2	-1	3.0	C[C@@H]1CCCCO[C@H](CN(C)C(=O)C2CCCCC2)[C@H](C)CN([C@@H](C)CO)C(=O)c2cc(NC(=O)Nc3ccccc3)ccc2O1
21	35*	1	7	34	COc1cccc(-c2cnc3c(NC=O)cc(-c4ccc(N5CCN(C)CC5)cc4)cn23)c1
22	-4.3	1	7	-0.7	CC(C)CC#Cc1cnc2c(c1)C(=O)N([C@@H](C)CO)C[C@@H](C)[C@@H](CN(C)C(=O)C1CCOCC1)O2
23	-3.8	8	15	-4.5	C/C=C/c1cnc2c(c1)C(=O)N([C@H](C)CO)C[C@H](C)[C@@H](CN(C)C(=O)Cc1cccnc1)O2
24	-0.7	4	-1	-5.1	CCCC#Cc1ccc([C@H]2[C@@H](CO)N3CCCCN(Cc4cccnc4)C[C@@H]23)cc1
25	-4.0	-1	0	1.3	CCCc1nc2ccc(C(=O)OC)cn2c1Cc1ccccc1C(F)(F)F
26	-1.3	-1	-3	-0.6	C[C@@H]1CN([C@@H](C)CO)C(=O)Cc2cc(N(C)C)ccc2O[C@H]1CN(C)C(=O)NC1CCCCC1
27	-0.6	4	13	2.7	CO[C@@H]1CN(C)C(=O)c2ccc(NC(=O)Nc3ccc(F)cc3)cc2OC[C@@H](C)NC[C@@H]1C
28	0.7	-2	2	15	COc1ccc(-c2cc(NC(C)=O)c3ncc(-c4ccc(F)cc4)n3c2)cc1OC
29	9.6	0	-6	6.2	C[C@@H]1CN([C@H](C)CO)C(=O)c2cc(/C=C/c3ccccc3)cnc2O[C@H]1CN(C)C(=O)Nc1ccccc1F
30	1.7	-4	2	1.1	C/C=C/c1ccc2c(c1)O[C@@H](CN(C)C(=O)c1ccccc1F)[C@@H](C)CN([C@@H](C)CO)S2(=O)=O
31	-2.2	6	2	-0.4	COc1cccc(-c2cnc3c(c2)C(=O)N([C@H](C)CO)C[C@H](C)[C@H](CN(C)C(=O)CC2CC2)O3)c1
32	-13	-4	-8	1.3	COC(=O)C[C@H]1CC[C@@H]2[C@H](COc3ccc(NC(=O)Nc4ccc(C#N)cc4)cc3C(=O)N2C)O1
33	-19	2	-5	-2.5	COc1ccc(S(=O)(=O)N(C)C[C@@H]2Oc3ccc(NC(=O)Cn4cnnn4)cc3C(=O)N([C@@H](C)CO)C[C@H]2C)cc1
34	-9.7	15	20	2.0	O=C(NCc1ccc(Cl)nc1)c1ccc2nc([C@@H]3O[C@H](CO)[C@H](O)[C@H](O)[C@H]3O)[nH]c2c1
35	1.1	2	8	1.5	O=C(CN1CCOCC1)NC[C@@H]1N[C@@H](CO)[C@H]1c1ccc(-c2ccccc2)cc1
36	-1.6	-4	3	1.3	C[C@@H]1CN([C@H](C)CO)C(=O)c2cc(/C=C/c3ccccc3)cnc2O[C@@H]1CN(C)C(=O)c1ccncc1
37	-13	-2	-3	-1.1	COCC(=O)N[C@H]1CC[C@H](CC(=O)NCc2ccccc2OC)O[C@@H]1CO
38	4.3	-2	-21	8.1	CC(C)NC(=O)Nc1ccc2c(c1)CC(=O)N([C@@H](C)CO)C[C@H](C)[C@@H](CN(C)Cc1ccc(Oc3ccccc3)cc1)O2
39	-0.8	-5	0	-1.2	CC(=O)N1CC2(C1)[C@H](c1ccc(-c3cccc(C#N)c3)cc1)[C@H](CO)N2CCC(F)(F)F
40	-0.3	-2	-3	-0.7	CN1c2ccc(-c3cccc(F)c3)cc2[C@@H]2[C@@H](CCN2S(=O)(=O)c2cccc(F)c2)[C@@H]1CO
41	-14	6	4	-2.6	Cc1noc(C)c1NC(=O)N(C)C[C@@H]1Oc2c(NS(C)(=O)=O)cccc2C(=O)N([C@H](C)CO)C[C@@H]1C
42	-3.7	4	9	0.5	CC(C)NC(=O)N(C)C[C@H]1Oc2ncc(C#Cc3ccncc3)cc2C(=O)N([C@H](C)CO)C[C@@H]1C
43	1.9	-2	-6	-0.8	Cc1ccc(S(=O)(=O)Nc2cccc3c2O[C@@H](CN(C)S(=O)(=O)c2ccc(C)cc2)[C@H](C)CN([C@@H](C)CO)C3=O)cc1
44	0.5	8	12	-1.1	Cc1ccccc1S(=O)(=O)NC(=O)C1(C)CCN1C(=O)CC(c1ccccc1)c1ccccc1 (configuration not stated)
45	6.1	-59	-70	-7.8	COc1ccccc1C#Cc1ccc([C@@H]2[C@H]3CN(CCC(F)(F)F)CCCCN3[C@H]2CO)cc1
46	2.7	3	12	-4.2	O=C(C[C@H]1CC[C@H]2[C@@H](COC[C@H](O)CN2S(=O)(=O)c2ccccc2)O1)NCCN1CCCCC1
47	0.3	3	11	-0.6	CCNC(=O)Nc1ccc2c(c1)C(=O)N(C)[C@@H]1CC[C@@H](CC(=O)NCc3ccc(F)cc3)O[C@H]1CO2
48	1.5	2	-11	8.9	COCC(=O)N1CC(=O)N2[C@H](C1)[C@@H](c1ccc(C#CC3CCCCC3)cc1)[C@@H]2CO
49	-1.6	0	2	-1.6	CCCC(=O)Nc1ccc2c(c1)OC[C@@H](C)N(C(=O)CC1CC1)C[C@@H](C)[C@H](OC)CN(C)C2=O
50	-10	9	7	3.2	O=C(C[C@H]1C[C@H]2c3cc(NC(=O)Cc4ccncc4)ccc3O[C@H]2[C@@H](CO)O1)NCCN1CCCCC1
51	3.8	-2	-6	2.3	O=C(Nc1ccc2c(c1)OCO2)c1cc(C2CCCCN2C(=O)OCCF)on1 (configuration not stated)
52	-0.9&-2.0	-59	-73	-9.7	Cc1cccc(-c2ccc(C3[C@@H]4CN(C(=O)Nc5ccc(C(F)(F)F)cc5)C[C@H]3N4)cc2)c1 (some centres not stated)
53	0.9	3	4	-2.5	CC(C)NC(=O)Nc1ccc2c(c1)C(=O)N([C@@H](C)CO)C[C@H](C)[C@H](CN(C)C(=O)CCCN(C)C)OCCCC[C@H](C)O2
54	-2.8	3	3	-0.7	C[C@@H]1CCCCO[C@@H](CN(C)Cc2ccc(Cl)c(Cl)c2)[C@@H](C)CN([C@@H](C)CO)C(=O)c2cc(NC(=O)Nc3cccc4ccccc34)ccc2O1
55	1.9	-3	3	-2.3	O=C(C[C@H]1C=C[C@H](NC(=O)Nc2ccc(F)cc2)[C@@H](CO)O1)NCc1ccccn1
56	-1.0	0	-10	2.0	C[C@@H]1CCCCO[C@@H](CN(C)C(=O)Nc2cccc3ccccc23)[C@H](C)CN([C@@H](C)CO)C(=O)c2cc(NC(=O)c3ccncc3)ccc2O1
57	6.7	-3	-2	1.0	C[C@@H]1CN([C@H](C)CO)C(=O)c2cccc(NC(=O)Nc3ccc(C(F)(F)F)cc3)c2O[C@H]1CN(C)Cc1ccc(Oc2ccccc2)cc1
58	1.3	-5	-13	2.6	COc1cc(NC(=O)N2CCc3nc(Nc4cc(Cl)cc(Cl)c4)ncc3C2)cc(OC)c1OC
59	-1.4	-3	3	1.4	COc1ccc(C[C@@H]2CCc3cnnn3COC[C@H](Cc3ccccc3)NC2=O)cc1
60	-2.4	2	5	-1.5	CCCNC(=O)[C@@H]1[C@@H](CO)[C@@H]2Cn3c(cccc3=O)[C@H]1N2Cc1cc(F)ccc1F
61	-3.6	0	6	-2.7	COCC(=O)N1[C@@H](CO)[C@@H](c2ccccc2)C12CN(C(=O)NC1CCCC1)C2
62	3.5	-3	-10	2.4	Cc1ccc(S(=O)(=O)Nc2ccc3c(c2)CC(=O)N([C@H](C)CO)C[C@H](C)[C@@H](CN(C)C(=O)Nc2ccc(C(F)(F)F)cc2)O3)cc1
63	-3.0	1	-1	-1.9	Cc1noc(C)c1NC(=O)N(C)C[C@H]1Oc2ccc(NC(=O)NC3CCCCC3)cc2CC(=O)N([C@@H](C)CO)C[C@H]1C
64	-3.8	-1	-1	-1.4	COc1ccc(S(=O)(=O)Nc2ccc3c(c2)C(=O)N([C@@H](C)CO)C[C@H](C)[C@H](CN(C)C(=O)c2ccncc2)OCCCC[C@@H](C)O3)cc1

Remaining list, next part.
No.	AF4-AF9 inh	Ecoli rRNA inh	Ecoli rRNA inh OD600	Ecoli rRNA inh RFP	Structure
65	2.4	-2	-6	0.7	COC(=O)[C@H](Cc1ccccc1)N1CC(N2CCCC2)CS1(=O)=O (some centres not stated)
66	-1.1	2	7	-2.2	C[C@@H](NC(=O)[C@@H]1N[C@@H]2c3ccc(-c4ccncc4)c(=O)n3C[C@@H]2[C@H]1CO)c1ccccc1
67	0.1	1	8	-3.7	CO[C@@H]1CN(C)C(=O)c2ccc(NC(C)=O)cc2OC[C@H](C)N(Cc2ccccn2)C[C@@H]1C
68	-2.5	-3	11	-2.1	CN1CCN(C2CN(Cc3cn(Cc4ccccc4C(F)(F)F)nn3)S(=O)(=O)C2)CC1 (configuration not stated)
